RecA splice inh = inhibitors of M. tuberculosis RecA intein splicing | cell-free RecA intein splicing, fluorescence | inhibition, %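 (about 9 µM by stock and volumes)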 | 290,000 tested, 0.75% active; in the data active = inhibition above about 30%; inconclusive = no clear call, values can overlap the other calls;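 also: 0% = vehicle wells and 100% = reference inhibitor control wells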
Target sequence (P9WHJ3 whole entry, looked up, canonical isoform): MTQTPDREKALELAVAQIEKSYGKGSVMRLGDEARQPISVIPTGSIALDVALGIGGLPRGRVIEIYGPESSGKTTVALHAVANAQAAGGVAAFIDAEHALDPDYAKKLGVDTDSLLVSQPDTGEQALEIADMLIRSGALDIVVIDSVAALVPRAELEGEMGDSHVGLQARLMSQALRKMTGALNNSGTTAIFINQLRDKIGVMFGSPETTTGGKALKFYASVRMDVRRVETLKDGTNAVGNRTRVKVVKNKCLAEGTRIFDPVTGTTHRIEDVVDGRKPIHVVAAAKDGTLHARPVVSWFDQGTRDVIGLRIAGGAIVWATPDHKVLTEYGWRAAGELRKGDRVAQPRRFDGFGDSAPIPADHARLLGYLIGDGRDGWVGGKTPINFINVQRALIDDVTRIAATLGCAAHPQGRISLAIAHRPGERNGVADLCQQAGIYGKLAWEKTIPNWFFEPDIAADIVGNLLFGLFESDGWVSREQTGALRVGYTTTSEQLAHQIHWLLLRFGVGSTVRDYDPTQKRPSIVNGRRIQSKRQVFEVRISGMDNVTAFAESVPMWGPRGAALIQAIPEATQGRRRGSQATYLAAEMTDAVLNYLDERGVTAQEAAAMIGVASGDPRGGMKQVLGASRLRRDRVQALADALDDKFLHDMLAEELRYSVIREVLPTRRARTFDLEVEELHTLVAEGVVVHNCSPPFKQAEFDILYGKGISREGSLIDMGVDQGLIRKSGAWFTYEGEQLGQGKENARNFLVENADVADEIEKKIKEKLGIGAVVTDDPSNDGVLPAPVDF
Mtb growth = M. tuberculosis H37Rv growth inhibitors, H37Rv strain (AID 1626) | M. tuberculosis H37Rv growth inhibition; higher % means a stronger effect | one-dose inhibition, % at 10 µM; IC50 in µM for titrated hits | 220,000 tested, 0.95% active;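 active = confirmed in a dose series; inconclusive = inhibition above 80% but not taken into the dose series; inactive = below 80% or under 30% at every dose of the series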;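 also: bacteria incubated seven days before Alamar blue readout; 0% = bacteria only wells and 100% = bacteria with antibiotic wells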
Mtb betalactam = beta-lactam sensitization of Mtb H37Rv; M. tuberculosis H37Rv growth with meropenem, percent inhibition; hits of this screen are not shown here; inhibition, % at 25 µM; 330,000 tested, 0.27% active; AID 434955;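 active = about 74% or more and at least 40 points above the plate without the antibiotic, then above 30% in a dose series; inconclusive = first-round hits that could not be retested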;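 also: growth measured after seven days incubation then overnight dye step; 0% = bacteria only wells and 100% = bacteria with antibiotic; twin plates without the antibiotic show which effects depend on it; some results filed as inactive read as strong as hits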
Arbovirus anti = antivirals against arbovirus infection | 200,000 tested, 0.37% active | arbovirus infection cell-based antiviral screen | inhibition, % at 10 µM;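 active = inhibition from about 30%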;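 also: bluetongue infection of BSR cells; cell survival read as ATP light after 72 h; 0% = infected wells without compound and 100% = uninfected wells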
YopH inh = blocks Yersinia enterocolitica YopH tyrosine phosphatase | inhibition, %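 (about 10 µM by stock and volumes)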 | 140,000 tested, 0.16% active | fluorescence Ex485/Em525;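 active = inhibition of 50% or more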;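 also: controls were vehicle for no effect and minimum signal wells for full effect; inactives centre near -20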
Arbovirus anti repeat = second read-out of Arbovirus anti, no call of its own (marks repeat the call); inhibition, %; measured here: 10K subset replicate screen; many hits read low in the repeat;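 first of two repeat runs on a subset; 0% = infected and 100% = uninfected wells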
* = called active by the depositor; ? = inconclusive; . = no result given. An excerpt, so the mix of outcomes need not match the whole.

SMILES | RecA splice inh | Mtb growth | Mtb betalactam | Arbovirus anti | YopH inh | others
Cn1c(N2C(=O)CC(Cc3ccccc3)C2=O)nc2ccccc21 (stereo not given) | -0.2 | 0% | -8 | 2 | -9
O=C(Nc1ccc(Br)cc1)c1cccc(N2C(=O)C3C4CCC(C4)C3C2=O)c1 (stereo not given) | 5.6 | -5% | -10 | 1 | -18
CCOC(=O)c1[nH]c2ccc(OC)cc2c1NC(=S)N1CCN(c2cccc(Cl)c2)CC1 | 0.1 | 1% | -11 | -11 | -20
Cc1c(C)c2ccc(OCC(=O)N3CCN(c4ccccc4)CC3)cc2oc1=O | -0.8 | . | 4 | . | .
COc1ccc(OC)c(CN2CCN(C(=O)c3cccc(S(=O)(=O)Nc4ccccc4OC)c3)CC2)c1 | -2.2 | . | 3 | . | .
O=C(NCCCn1ccnc1)C(=O)NCc1ccc(Cl)cc1 | 3.7 | 0% | -5 | -14 | -9
O=C(CNS(=O)(=O)c1cccc(C(F)(F)F)c1)Nc1ccccc1F | 2.9 | -11% | 1 | 1 | -29
CCOC(=O)N1CCN(C(=O)C(CC(C)C)NS(=O)(=O)c2ccc3c(c2)oc(=O)n3C)CC1 (stereo not given) | -0.2 | -2% | 5 | 0 | -5
O=C(c1ccc(-c2ccccc2)cc1)N1CCCC1 | 5.2 | 3% | -7 | 8 | -74 | Arbovirus anti repeat=-2
CC1(C)CC(=O)C(C=Nc2ccncc2)=C(O)C1 | -2.3 | -4% | 7 | . | 3
Cc1ccc(NC(=O)CCN2C(=O)C3CCCCC3C2=O)c(O)c1 (stereo not given) | -4.6 | . | -7 | . | .
CC(C)NC(=O)COc1ccc(/C=N/NS(=O)(=O)c2ccccc2)cc1 | -0.6 | -11% | 4 | 6 | -17
Cc1ccccc1NC(=O)C(=Cc1ccc(C(=O)O)cc1)C(=O)Nc1ccccc1C | 68* | 0% | . | -1 | .
O=C1CCC(C(=O)OCC(=O)c2ccccc2)N1 (stereo not given) | . | -2% | 1 | 2 | .
O=C(CCC(=O)OC(C(=O)c1ccccc1)c1ccccc1)Nc1ccccc1 (stereo not given) | 0.6 | 1% | -2 | -1 | -18
O=C(O)CSC1c2ccccc2C(=O)N1c1ccccc1 (stereo not given) | 4.4 | -2% | -1 | 4 | -47
Cc1cc(C(=O)NNC(=S)Nc2cccc(C(F)(F)F)c2)nn1C | 3.9 | . | 5 | . | .
C=CCn1c(O)c(C=NCCCn2ccnc2)c(=O)[nH]c1=O | -0.1 | -2% | -10 | . | .
COc1ccccc1C(=O)N1CCN(C(=O)c2ccncc2)CC1 | -0.8 | -5% | 3 | 0 | 13
O=C(CSc1nnc(NC(=O)C2CC(=O)N(c3ccc(F)cc3)C2)s1)NCC1CCCO1 (stereo not given) | 2.8 | . | -3 | . | .
O=C(CCN1C(=O)/C(=C/c2ccc(F)cc2)SC1=S)NCCc1cnc[nH]1 | 9.2 | . | 7 | . | .
Cc1cc(Cl)ccc1Oc1ncnc2onc(C)c12 | 6.4 | -5% | -6 | -1 | .
C=CCNc1nc(NC(C)(C)CO)nc(OC)n1 | . | -3% | 1 | 4 | -32
CC(C)Cn1c(=O)c(C(=O)NCc2ccccn2)c(O)c2ccccc21 | 11 | 3% | 56 | -17 | 6
Cc1ccccc1N1C(=O)C(Oc2ccc(Cl)cc2)C1CNC(C)(C)C (stereo not given) | 0.2 | 5% | 1 | -3 | 5
Cc1cccc(CNC(=O)CCc2nnc(C3CCCCC3)o2)c1 | 1.6 | 2% | -1 | 4 | .
CCOC(=O)CN1C(=O)N[C@@H](CCc2ccccc2)[C@@H](C(=O)OC)[C@H]1C | -2.5 | -9% | -21 | . | .
COc1ccccc1-c1nnc(SCC(=O)Nc2nc(-c3ccccc3)cs2)n1C | 10 | -3% | 10 | 12 | -45
O=C(NC1CC1)C(Cl)c1ccccc1 (stereo not given) | 3.0 | . | 2 | . | .
COc1cccc(NS(=O)(=O)c2ccc(Br)s2)c1 | -0.4 | 10% | 7 | 0 | -22
O=c1c2ccccc2nnn1CSc1nc2ccccc2[nH]1 | -1.3 | 1% | -1 | 4 | -1
O=C(COc1ccccc1)NNc1nc2ccccc2s1 | -1.0 | ? | 91 | . | .
COc1ccc(N2CCN(S(=O)(=O)c3cc(Br)cnc3N)CC2)cc1 | -4.2 | . | -3 | . | .
CCOc1ccc(NC(=O)CN2CCN(C(=O)C3CCCO3)CC2)cc1 (stereo not given) | 2.0 | . | 0 | . | .
O=C(NCC(=O)N(c1ccc(F)cc1)C(C(=O)NC1CCCC1)c1cccnc1)c1ccco1 (stereo not given) | -3.6 | . | 0 | . | .
COC(=O)c1ccc2c(c1)N(Cc1nc(-c3cccc(C)c3)oc1C)C(=O)C1CCCN21 (stereo not given) | 7.9 | 8% | . | 7 | -51 | Arbovirus anti repeat=5
Cc1csc(C)[n+]1CC(=O)c1ccccc1 | -1.6 | . | 3 | . | .
COc1cc2c(cc1OC)/C(=C/c1ccc(Br)cc1)C(=O)OC2 | 10 | 5% | 4 | 16 | -9
O=C(COC(=O)CCCc1nc2ccccc2s1)Nc1ncc(Cl)cc1Cl | 3.3 | -9% | -2 | 2 | -9
S=C(NCc1cccnc1)NCc1cccnc1 | 1.1 | 1% | -7 | 18 | .
C=CCn1c(SCC(=O)N2CCOCC2)nc2ccccc2c1=O | 6.4 | . | -3 | . | .
COc1ccc(CCNC(=O)c2cc3c(=O)n4ccccc4nc3n(Cc3ccco3)c2=N)cc1OC | -8.2 | . | 9 | . | .
Cc1cc(C(=O)COc2ccc(F)cc2Br)c(C)n1C | 3.1 | 5% | -8 | 8 | .
O=C(CN1CCN(S(=O)(=O)c2ccc3ccccc3c2)CC1)Nc1ccc(N2CCOCC2)cc1 | 7.3 | 5% | 4 | 15 | -33
O=C(CCCNC(=O)c1ccc(Cl)cc1)Nc1cccc(F)c1 | 1.1 | . | -6 | . | .
CCn1cc(C(=O)N2CCc3ccccc32)c(=O)c2cc(S(=O)(=O)N3CC(C)CC(C)C3)ccc21 (stereo not given) | 4.8 | 8% | 8 | 0 | -28
CC1CCc2sc3ncnc(N4CCN(CCO)CC4)c3c2C1 (stereo not given) | -3.2 | . | -1 | . | .
[O-]/C(=C(\C(=S)NCc1ccccc1)[n+]1ccccc1)c1ccc(Cl)cc1 | 0.2 | 4% | 7 | -1 | .
Cc1cc(=O)nc2c3ccccc3n(CC(=O)NCCCN3CCCC3=O)n12 | 0.0 | . | -2 | . | .
Cc1ccc(C(=O)c2nocc2C(=O)c2cccs2)cc1 | 6.5 | -2% | 0 | 2 | -26
COc1ccc(C(=O)N2CC(=O)Nc3ccccc32)cc1S(=O)(=O)N1CCCC1 | 1.3 | 5% | -7 | 1 | .
COc1nc(Nc2ccccc2)nc(OC)n1 | 0.6 | . | -6 | . | .
COCCCn1ccc(O)c(Cc2ccc(F)cc2)c1=O | -3.5 | -4% | -13 | -3 | -28
COC(=O)c1cc([N+](=O)[O-])ccc1N1CCN(Cc2ccccc2)CC1 | 1.0 | 2% | 4 | 10 | -13
CCCC(=O)NCCc1cc2ccc(OC)cc2[nH]c1=O | 2.9 | -1% | 19 | -4 | 10
CN(C)CCCn1c(=O)n(CCc2ccccc2)c(=O)c2c3c(sc21)CCCCC3 | 1.5 | 12µM* | 100 | . | .
Cc1ccc(CNC(=O)C2CCC(=O)N(CCCN3CCOCC3)C2)cc1 (stereo not given) | 3.3 | . | -1 | . | .
COc1ccccc1C(=O)O/N=C1/CCCc2c1ccc(OC)c2[N+](=O)[O-] | 5.5 | -4% | 16 | 4 | -36
COc1ccc(-c2[nH]ncc2CN2CCN(c3ccccn3)CC2)c(OC)c1 | -4.3 | -11% | -8 | -2 | .
Cc1cccc2sc(NC(=O)CCn3cccc3)nc12 | 0.8 | 2% | -7 | -5 | .

Entries from the list above that contain an aryl thioether with sulfur outside any ring (4):
SMILES | RecA splice inh | Mtb growth | Mtb betalactam | Arbovirus anti | YopH inh | others
O=C(CSc1nnc(NC(=O)C2CC(=O)N(c3ccc(F)cc3)C2)s1)NCC1CCCO1 (stereo not given) | 2.8 | . | -3 | . | .
COc1ccccc1-c1nnc(SCC(=O)Nc2nc(-c3ccccc3)cs2)n1C | 10 | -3% | 10 | 12 | -45
O=c1c2ccccc2nnn1CSc1nc2ccccc2[nH]1 | -1.3 | 1% | -1 | 4 | -1
C=CCn1c(SCC(=O)N2CCOCC2)nc2ccccc2c1=O | 6.4 | . | -3 | . | .

Following part:
SMILES | RecA splice inh | Mtb growth | Mtb betalactam | Arbovirus anti | YopH inh | others
CCOc1ccc(NC(=O)NCCCSC2CCCCC2)cc1 | . | -1% | 1 | -14 | 21
CCOC(=O)c1cnc(-n2nc(C)cc2C)nc1N1CCOCC1 | -1.5 | -9% | -9 | 7 | -35
CCOC(=O)N1CCN(c2cc(N(C)CCO)c([N+](=O)[O-])c3nonc23)CC1 | 2.8 | 1% | . | 11 | .
CC(=O)c1ccc(NC(=O)Nc2ccc(Br)cc2C)cc1 | -0.4 | 4% | 1 | -4 | .
CCn1c(SCc2ccc(Cl)c(Cl)c2)nnc1C(C)NC(=O)c1ccc(OC)cc1 (stereo not given) | -3.7 | 3% | 9 | -5 | -28
O=C(NCCc1ccccc1)c1ccc2nc3cc(Cl)ccc3c(=O)n2c1 | -9.8 | . | -6 | . | .
N#Cc1ccccc1Sc1ccccc1C(=O)OCc1nnc(-c2ccccc2)o1 | 7.8 | 6% | 7 | 4 | -40
COc1ccc(C(=O)N2CCN(c3ccc(NC(=O)c4cccnc4)cc3)CC2)cc1 | 0.4 | . | 5 | . | .
COc1cccc(NC(=O)C(=O)NCCc2ccc(F)cc2)c1 | 1.8 | -1% | 3 | . | .
O=C(NC(=S)N1CCCc2ccccc21)c1ccc(Br)cc1 | 2.9 | -2% | -2 | -3 | -50
S=c1nc(-c2ccccc2)c(-c2ccccc2)n[nH]1 | 2.4 | -6% | 5 | . | .
COc1ccc2occ(C(=O)c3coc4ccc(O)c(CN(C)C)c34)c2c1 | 3.2 | 4% | 13 | 1 | -11
COC(=O)c1ccc(N2CCN(c3ccccc3)CC2)c(N)c1 | 0.1 | . | -3 | . | .
CC(C)n1cnc2c(oc3ccccc32)c1=O | -1.1 | . | 6 | . | .
CC1(C)NC(=O)N(CC(O)COc2ccc(-c3ccccc3)cc2)C1=O (stereo not given) | -1.0 | . | -1 | -1 | 3

Grouped by structure, those above with a nitro group on carbon (3)
SMILES | RecA splice inh | Mtb growth | Mtb betalactam | Arbovirus anti | YopH inh | others
COC(=O)c1cc([N+](=O)[O-])ccc1N1CCN(Cc2ccccc2)CC1 | 1.0 | 2% | 4 | 10 | -13
COc1ccccc1C(=O)O/N=C1/CCCc2c1ccc(OC)c2[N+](=O)[O-] | 5.5 | -4% | 16 | 4 | -36
CCOC(=O)N1CCN(c2cc(N(C)CCO)c([N+](=O)[O-])c3nonc23)CC1 | 2.8 | 1% | . | 11 | .

Three entries already listed, arranged by heavy-atom count, falling:
SMILES | RecA splice inh | Mtb growth | Mtb betalactam | Arbovirus anti | YopH inh | others
O=C(NCCc1ccccc1)c1ccc2nc3cc(Cl)ccc3c(=O)n2c1 | -9.8 | . | -6 | . | .
O=C(NC(=S)N1CCCc2ccccc21)c1ccc(Br)cc1 | 2.9 | -2% | -2 | -3 | -50
CC(=O)c1ccc(NC(=O)Nc2ccc(Br)cc2C)cc1 | -0.4 | 4% | 1 | -4 | .

Going on with the list:
SMILES | RecA splice inh | Mtb growth | Mtb betalactam | Arbovirus anti | YopH inh | others
Cc1ccccc1CSc1nsc(N)n1 | 1.3 | 70% | 97 | -4 | -6
COc1ccc(CCNC(=O)COc2ccc(S(=O)(=O)N3CCOCC3)cc2)cc1 | -0.1 | -6% | 1 | 10 | 31
Cc1nc2ccccc2n1CCOc1ccc(F)cc1 | -0.1 | . | 0 | . | .
O=C(N/N=C\c1cccc(Cl)c1)c1ccc(Cn2cc(Br)c([N+](=O)[O-])n2)o1 | 1.6 | 1% | 98 | -1 | -15
C=CCn1c(=O)c2c(nc(-n3nc(C)cc3C)n2C)n(C)c1=O | -0.1 | . | -5 | . | .
O=c1c(-c2ccc(Cl)cc2)coc2c(CN3CCCCC3)c(O)ccc12 | 0.2 | . | -7 | . | .
O=C(N/N=C/C=C\c1ccccc1[N+](=O)[O-])c1cc(-c2ccc3ccccc3c2)n[nH]1 | 0.4 | 10% | . | -35 | -31
CC(/C=N/NC(=O)c1cc(-c2ccncc2)nc2ccccc12)=C\c1ccco1 | . | . | ? | -4 | -30
CCCc1cc(=O)oc2cc(Oc3ncccn3)ccc12 | -0.8 | -6% | 0 | 4 | -3
